Bioassay records as filed in PubChem.
Calb biofilm kill: clotrimazole potentiators killing C. albicans biofilm, primary screen, 4-compound mixtures | AID 1242, 2008 | C. albicans biofilm persisters + clotrimazole, fluorescence viability; primary screen in compound mixtures of four per well | inhibition, % at 7.6 µM | 120,000 tested, 0.02% active;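 active means inhibition above 30.3% in the primary screen of four-compound pools, then above 30% when the compound was retested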;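 further: compounds exposed to preformed 24 h biofilms for 48 h; the number belongs to the whole pool; some results filed as inactive read as strong as hits; inactives centre near 12; 0% = biofilm with clotrimazole alone and 100% = kill control; retested singly at about 60 µM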
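System: C. albicans CAF4-2 wild-type biofilms; Medium: RPMI/MOPS medium, pH 7.0; Reagent: Clotrimazole, 50 µg/mL; Times: biofilm formation 24 h, compound exposure 48 h, 37 °C; Detection: 2-h Alamar Blue fluorescence, 535/590 nm excitation/emission; Evaluation: percent inhibition of biofilm viability.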
* marks the source's active call; other numbers are inactive results. This is a subset; count on the stated rates, not on these rows.

SMILES	Calb biofilm kill
COc1cccc(CN2C[C@]34C=C[C@@H](C[C@@H]3S2(=O)=O)O4)c1	8.0
COCCn1c(Br)nc2c1c(=O)n(C)c(=O)n2C	12.3
CC1=NOC(=O)/C1=C\c1ccc(-c2ccc(Br)cc2)o1	17.9
CCOc1ccc(-c2ccc(C=O)o2)c([N+](=O)[O-])c1	12.8
Cc1ccc(C(=O)CSc2nc(C(C)C)nc3ccccc23)cc1	13.6
CNC(=O)NC(=O)COC(=O)c1n[nH]c2ccccc12	21.0
OCC1(CCc2ccccc2)CCN(Cc2ccc3nsnc3c2)CC1	25.9
CCCCCNC(=O)C(=O)C1C(=O)Nc2ccccc21 (configuration not stated)	17.3
Cc1cc(-c2nnc(SCC(=O)Nc3nc(-c4ccccc4)cs3)o2)no1	14.6
Cc1cc(C)cc(NC(=S)NC2CC3CCCC(C2)N3C2CCCC2)c1 (configuration not stated)	24.6
O=C(c1ccc(-c2ccccc2)cc1)N1CCN(c2ccccn2)CC1	12.7
CCCCn1c(Cc2ccccc2)nnc1SCC(=O)Nc1cc(C)on1	7.9
S=C(Nc1ccc2cn[nH]c2c1)Nc1ccc(Cl)cc1Cl	16.4
O=C(O)CSCC(=O)N1CCN(S(=O)(=O)c2cc(Cl)cc(Cl)c2)CC1	9.7
CCc1cccc(NC(=O)C2CCN(S(=O)(=O)c3c(C)noc3C)CC2)c1	7.8
COc1cccc2cc(C(=O)N(Cc3cccs3)CC3CCCO3)c(=O)oc12 (configuration not stated)	12.3
CCOC(=O)c1cc(-c2ccccc2)n(CC(=O)Nc2ccc(OCC)cc2)c1C	12.9
Cc1cccc(C(=O)Nc2cccc(Br)c2)c1[N+](=O)[O-]	8.6
Cc1ccc(Cn2nnc3c(=O)n(Cc4cc(C)ccc4C)cnc32)cc1	7.4
Cc1nnc(NC(=O)c2ccc(S(=O)(=O)C(F)F)cc2)s1	18.5
CCCNC(=O)CSC1=N/C(=C/c2ccc(F)cc2)C(=O)N1CC	5.7
CN(C)CCNC(=O)C(c1ccccc1)c1ccccc1	18.4
N#Cc1c(-c2ccc(F)cc2)cc(-c2ccccc2)nc1SCC(=O)NCC(=O)O	-0.2
CCOC(=O)Cn1nnc(-c2ccc([N+](=O)[O-])cc2)n1	27.5
Cc1c(/C=N/NC(=O)C(NC(=O)c2ccc3c(c2)OCO3)C(C)C)c2ccccc2n1C (configuration not stated)	8.8

Next structures follow:
SMILES	Calb biofilm kill
CC(C)(SC(=S)N1CCCCCC1)C(=O)O	27.1
CCOc1cc(NC(=S)NCCCN2CCOCC2)c(OCC)cc1NC(=O)c1ccc(C)cc1	12.8
COc1ccccc1NC(=O)CSc1nnc(C)n1CC1CCCO1 (configuration not stated)	14.0
N#Cc1cnn(-c2ccccc2)c1NC(=O)CN1CCOCC1	10.9
Cc1ccc(OCCOC(=O)c2nc3nccc(C)n3n2)cc1	-7.0
COC(C(=O)Nc1c(F)cccc1F)c1ccccc1 (configuration not stated)	9.4
O=C(Oc1ccccc1)n1c(=S)oc2ccccc21	13.7
Cc1ccc(NC(=O)CSc2ncn[nH]2)cc1	10.5
Cc1noc(C)c1COc1ncnc2ccccc12	2.8
CCn1c(=O)c(C(=O)CN2CCN(Cc3ccc4c(c3)OCO4)CC2)c(N)n(Cc2ccccc2)c1=O	0.6
CC1SCC(=O)N(CC(=O)Nc2ccc3c(c2)OCCO3)C1=O (configuration not stated)	4.8
COc1cc(C(=O)O/N=C2\C=CC(=O)C=C2C)cc(OC)c1OC	12.9
CC(C)(C)c1ccc(NC(=O)NC2CCCc3ccccc32)cc1 (configuration not stated)	12.2
O=C(CCn1c2c(c3ccccc31)CCCC2)NNC(=O)c1ccccc1[N+](=O)[O-]	-1.5
N#Cc1ccc(-c2cccs2)nc1SCc1cccnc1	20.9
CCOc1ccc(NC(=O)C2CCN(C(=O)NC3CCCCC3)CC2)cc1	3.3
COc1ccc2cc1Oc1ccc(cc1)C[C@H]1c3cc(c(OC)cc3CCN1C)Oc1c(OC)c(OC)cc3c1[C@H](C2)N(C)CC3	9.1
O=C(CSc1ccc(-c2ccco2)nn1)N1CCCCC1	12.0
CC1CCCN(c2ccc(C(=O)NCc3ccc4c(c3)OCO4)cc2[N+](=O)[O-])C1 (configuration not stated)	7.2
CCOc1ccccc1CNCCOC	9.0
O=C(Nc1nnc(SCc2ccccc2)s1)c1cccc([N+](=O)[O-])c1	21.8
O=C(CSc1nc2ccccc2s1)N/N=C/c1ccc(C(=O)O)cc1	5.8
Fc1cccc(Cl)c1/C=N/Nc1c(Cl)cncc1Cl	8.3
CN(Cc1cn[nH]c1-c1ccc(-c2ccccc2)cc1)CC1CCOCC1	20.9
Clc1ccc(SCc2csc(N3CCOCC3)n2)cc1	11.5

(cont.)
SMILES	Calb biofilm kill
O=C(CC(=O)N/N=C/c1ccc(O)cc1)N/N=C/c1ccc(O)cc1	15.9
CN(CC(=O)O)c1ccc(S(=O)(=O)N2CCOCC2)cc1[N+](=O)[O-]	6.3
COCCCNC(=O)Cn1c(=O)n(CCCCCC(=O)NCc2ccc3c(c2)OCO3)c(=O)c2sccc21	-10.2
Nc1ccn([C@@H]2O[C@H](CO)[C@@H](O)[C@@H]2O)c(=O)n1	8.8
CC(C)OC(=O)Cn1cc(C#N)c2ccccc21	8.7
CCOC(=O)C(NC(=O)CC)(Nc1ccccc1)C(F)(F)F (configuration not stated)	12.2
CCOC(=O)C1C(C(=O)NN)C1C(=O)Nc1ccccc1 (configuration not stated)	7.1
COc1ccc(CCNC(=O)c2ccc3c(c2)SC2=NS(=O)(=O)CCN23)cc1	17.6
CN(c1ccccc1)S(=O)(=O)c1ccc(NC(=O)c2ccccc2)cc1	10.5
O=c1cc(O)c2ccccc2n1Cc1ccccc1Cl	15.6
CC(OC(=O)c1cc2ccccc2cc1O)C(=O)Nc1ccc(S(N)(=O)=O)cc1 (configuration not stated)	10.6
Cc1ccc(O)c(NC(=S)NC(=O)c2ccccc2Cl)c1	-1.2
Cc1cc(OC(=O)c2ccc(S(=O)(=O)N3CCOCC3)cc2)c([N+](=O)[O-])c(=O)[nH]1	9.1
COc1ccc(/C=N/Nc2cc(C)nc(N)n2)cc1	10.7
COc1ccccc1-n1c(=S)[nH]c2c(sc(=S)n2-c2ccccc2C)c1=O	20.1
Cc1ccc(C(=O)Nc2ccc3c(c2)CCC3)cc1S(=O)(=O)N1CCOCC1	12.2
COc1cccc([C@H](O)Cn2cc(-c3ccc(CON=C(C)C)cc3)nn2)c1	7.3
CCO/C=C1/C(=O)N(c2ccc(OC)cc2)C(=O)c2ccccc21	13.5
C/C(Cn1cnc([N+](=O)[O-])n1)=N\NC(=O)c1cccc(F)c1	9.1
CCn1c(=O)n(CC)c2cc(N)ccc21	7.0
COc1cc(-c2ccc(Nc3ccccc3C(=O)O)c(OC)c2)ccc1Nc1ccccc1C(=O)O	11.9
CCOc1cc(N2CCOCC2)c(OCC)cc1NC(=O)c1ccc(C)s1	9.2
Cc1nc(SCc2ccc(Cl)c(Cl)c2)ncc1C(=O)O	16.4
COc1ccc(C=O)c(OC)c1	17.0
COC(=O)C1C(c2ccccc2)C(C(=O)O)C1c1ccccc1 (configuration not stated)	17.3

Later entries
SMILES	Calb biofilm kill
CN=C(c1ccc([N+](=O)[O-])cc1)N1CCCCC1	-0.5
COC(=O)c1ccc(C2Nc3cccc4cccc(c34)N2)cc1	7.1
COC(=O)c1ccc(C23CC4(C2)[C@H](CN(Cc2ccc(-c5ccccc5)cc2)[C@@H]4c2ccccc2)C3c2ccc(C(F)(F)F)cc2)cc1 (some centres not stated)	16.2
Cc1ccc2ncnc(NCCCCCC(=O)O)c2c1	10.2
Cc1cccc(NC(=S)N(C)C)c1C	17.5
CN(C)C(=O)CC12CC3CC(C1)CC(CC(=O)N(C)C)(C3)C2	6.5
O=[N+]([O-])c1ccc(S(=O)(=O)N/N=C/c2ccco2)cc1	5.3
COc1ccc(N2C(=O)CCC(C(=O)O)C2c2ccccc2OC)cc1 (configuration not stated)	16.7
COc1cc(OC)c(S(=O)(=O)N2CCN(C(=O)c3ccccc3F)CC2)cc1NC(C)=O	14.1
O=C(N=C1c2ccccc2CN1c1ccc(F)c(F)c1)c1cccnc1	13.9
CCc1ccccc1NC(=O)c1ccc(NCCc2ccccc2)c([N+](=O)[O-])c1	11.9
COc1ccc2c(c1)[N+](C)(C)C(C)(C)C=C2C	10.0
CC(=O)Nc1ccc(C(=O)CSc2nnnn2C)cc1	-21.2
Cc1cccc(C)c1NC(=O)CCCSc1nnc(-c2ccc(F)cc2)n1-c1ccccc1	11.2
Cc1cc(C)cc(NC(=O)COC(=O)[C@@H](NC(=O)c2ccco2)C(C)C)c1	-4.1
O=C(NCc1ccc(Cl)cc1)C(=O)NCC(c1cccnc1)N1CCN(c2ccc(F)cc2)CC1 (configuration not stated)	24.7
CCOCCCNC(=O)c1cc(Sc2ccc(F)cc2)nc2ccccc12	12.8
CN(CCc1ccccn1)C(=O)CCc1nnc(CCCc2ccccc2)o1	19.1
Cc1nc(-c2ccccn2)nc(N2CCOCC2)c1Cl	7.5
COC(=O)c1c(NC(=O)CCCC(=O)O)sc2c1CCCCC2	15.4
O=C1CSC(c2ccncc2)N1Cc1ccccc1 (configuration not stated)	6.1
CN(Cc1ccccc1NCC(=O)Nc1ccccc1C#N)C1CCCCC1	9.6
CC(NC(=S)Nc1ccc(F)cc1)C(c1cccs1)N1CCOCC1 (configuration not stated)	4.5
Cn1c(N)c(C(=O)COC(=O)CCCOc2ccc(Cl)cc2Cl)c(=O)n(C)c1=O	7.2
Cc1ccc(S(=O)(=O)N(C)C)cc1NC(=O)COC(=O)CCC(=O)c1cccs1	10.3

Following part:
SMILES	Calb biofilm kill
Cc1cc(C)c(C)c(N=Nc2nc3ccccc3n2C)c1C	3.2
O=C(NC1CC1)C1=C[C@H](C2CC2)C[C@H](OCCCCO)O1	4.7
CC(=O)c1cc(NC(=O)c2cccc(C(F)(F)F)c2)c(=O)oc1C	9.6
Cc1ccc(NC(=O)Nc2cccc(C)n2)c(C)c1	27.0
O=[N+]([O-])c1cccc(/C=N/Nc2nnc(-c3ccccc3)c(-c3ccccc3)n2)c1	12.1
CC(C)c1ccc(/C=N/N2CCCCC2)cc1	3.8
CC(=O)Nc1ccc(OCCCNC(=O)c2c(-c3ccccc3)noc2C)cc1	16.9
COc1ccc(CN2CCNC(=O)C2CC(=O)N(C)Cc2ccon2)c(OC)c1 (configuration not stated)	15.6
Cc1cc(C(=O)O/N=C(\N)c2ccc(C(C)(C)C)cc2)no1	10.0
COc1ccc(S(=O)(=O)NC2CCCCC2)cc1-n1cnnn1	19.0
COc1ccc(N/C(N)=N/c2nc(CSc3nnc(C)s3)cc(=O)[nH]2)cc1	14.2
CC(C)Cn1c(N)c(C(=O)COC(=O)[C@@H]2CCCN2C(=O)c2cccs2)c(=O)n(C)c1=O	6.3
Cc1ccc(S(=O)(=O)N2CCCCC2C(=O)O)s1 (configuration not stated)	13.2
O=C(O)CC(SCC(=O)Nc1ccc(Cl)c(S(=O)(=O)N2CCOCC2)c1)C(=O)O (configuration not stated)	-5.0
Oc1[nH]c2ccccc2c1C=Nc1ccccc1	18.0
CC(C)CN1CCN(C2CCN(C(C)C)CC2)C(CCO)C1 (configuration not stated)	15.6
CC(=O)Nc1ccc(C(=O)NCCCOC(C)C)cc1	24.8
COc1ccc(OC(=O)COc2ccc(C)cc2)cc1	17.9
Cc1ccc(-n2cccc2/C=C2/C(=N)N3C(=NC2=O)SN=C3S(C)(=O)=O)cc1Cl	12.6
CC(C)(C)Sc1ccccc1S(=O)(=O)C(C)(C)C	13.4
CCCCOc1cccc(C(=O)NNC(=S)NC2CCCCC2)c1	13.1
O=C(NNC(=O)c1ccc(Cl)cc1Cl)c1cccs1	7.4
COc1ccccc1C(=O)NC(=S)Nc1ccc(N2CCOCC2)c(Cl)c1	13.6
CCC(C)(C)NC(=O)C(c1ccc(F)cc1)N(Cc1cccc(OC)c1)C(=O)c1cnccn1 (configuration not stated)	-8.7
O=C(/C=C/c1ccco1)Nc1nc(-c2ccc(F)c(F)c2)cs1	4.8

The listing continues:
SMILES	Calb biofilm kill
CC(=O)CC(=O)Nc1ncccn1	13.2
Cc1cccc(OCCSc2nc3c([nH]2)c(=N)ncn3Cc2ccccc2)c1	10.7
CCC(C)Nc1cc(C)nc2ncnn12 (configuration not stated)	7.6
Cc1ccc2[nH]c(=O)c(COC(=O)c3cccs3)cc2c1	12.3
O=C(CSc1ccc(Cl)cc1)Nc1nnc(-c2cccc([N+](=O)[O-])c2)s1	15.3
COc1ccccc1CNC(=O)COc1ccc(C)nc1[N+](=O)[O-]	7.3
O=S(=O)(NCc1ccc(Cl)cc1)c1cccc2cccnc12	14.7

Compounds above that contain a CF3 group, in the order listed:
SMILES	Calb biofilm kill
CCOC(=O)C(NC(=O)CC)(Nc1ccccc1)C(F)(F)F (configuration not stated)	12.2
COC(=O)c1ccc(C23CC4(C2)[C@H](CN(Cc2ccc(-c5ccccc5)cc2)[C@@H]4c2ccccc2)C3c2ccc(C(F)(F)F)cc2)cc1 (some centres not stated)	16.2
CC(=O)c1cc(NC(=O)c2cccc(C(F)(F)F)c2)c(=O)oc1C	9.6

Of the compounds above, five contain a cyano group:
SMILES	Calb biofilm kill
N#Cc1c(-c2ccc(F)cc2)cc(-c2ccccc2)nc1SCC(=O)NCC(=O)O	-0.2
N#Cc1cnn(-c2ccccc2)c1NC(=O)CN1CCOCC1	10.9
N#Cc1ccc(-c2cccs2)nc1SCc1cccnc1	20.9
CC(C)OC(=O)Cn1cc(C#N)c2ccccc21	8.7
CN(Cc1ccccc1NCC(=O)Nc1ccccc1C#N)C1CCCCC1	9.6

Structural class, those above with bromine (three)
SMILES	Calb biofilm kill
COCCn1c(Br)nc2c1c(=O)n(C)c(=O)n2C	12.3
CC1=NOC(=O)/C1=C\c1ccc(-c2ccc(Br)cc2)o1	17.9
Cc1cccc(C(=O)Nc2cccc(Br)c2)c1[N+](=O)[O-]	8.6
